eIF4H FP inh: inhibitors of RNA binding by human eIF4H | inhibition, % at 35 µM | AID 2012 | hit rate 0.94% among 290,000 | Q15056 | eIF4H fluorescence polarization binding assay;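 active means 50% or more with normal probe brightness, or confirmed in later tests; inconclusive means above 50% with abnormal brightness, or retests that disagree; inactive means below 50% or failed in later tests; about a fifth of its hits are not listed in these tables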;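 further: calls also rest on retests at 20 µM and on dose response follow-up; 0% = protein and probe with vehicle and 100% = probe without protein; strong numbers were not always called active; many hits fall short of the cut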
PABP polyA inh: blocks human PABP binding to poly(A) RNA. P11940. fluorescence polarization. inhibition, % at 35 µM. hit rate 1% among 290,000. AID 2014;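 active means 50% or more with normal probe brightness, or confirmed in later tests; inconclusive means above 50% with abnormal brightness, or retests that disagree; inactive means below 50% or failed in later tests; about a fifth of its hits are not listed in these tables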;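 further: calls also rest on retests at 20 µM and on dose response follow-up; controls were probe without protein and protein plus probe with vehicle; some compounds called inactive have numbers as strong as hits; many hits fall short of the cut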
Target sequence (P11940 whole entry, looked up): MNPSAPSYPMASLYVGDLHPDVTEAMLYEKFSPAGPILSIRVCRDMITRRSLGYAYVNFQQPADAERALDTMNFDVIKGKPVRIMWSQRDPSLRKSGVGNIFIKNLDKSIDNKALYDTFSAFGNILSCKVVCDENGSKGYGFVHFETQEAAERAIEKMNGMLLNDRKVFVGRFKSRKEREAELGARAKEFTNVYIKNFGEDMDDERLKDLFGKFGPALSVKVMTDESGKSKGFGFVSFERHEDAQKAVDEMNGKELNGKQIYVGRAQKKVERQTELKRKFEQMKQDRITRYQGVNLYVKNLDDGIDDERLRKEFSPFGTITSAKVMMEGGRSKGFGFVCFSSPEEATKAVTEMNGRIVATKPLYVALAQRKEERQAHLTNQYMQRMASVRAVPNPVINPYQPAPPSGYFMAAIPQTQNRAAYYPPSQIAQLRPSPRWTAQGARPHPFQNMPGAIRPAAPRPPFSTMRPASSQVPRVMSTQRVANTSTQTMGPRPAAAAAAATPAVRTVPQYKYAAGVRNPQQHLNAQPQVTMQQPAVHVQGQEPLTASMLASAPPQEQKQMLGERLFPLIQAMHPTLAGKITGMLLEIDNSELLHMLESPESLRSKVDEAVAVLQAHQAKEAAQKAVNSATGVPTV
CSC inhib: cancer stem cell inhibition | hit rate 1.1% among 300,000 | cancer stem cell-like cells viability, luminescence | inhibition, % at 7.5 µM;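 active means mean at 75% or more and at least half the replicates too; inconclusive means mean and replicates disagree; tested in HMLE shEcad cells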;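 further: 0% = median of negative and 100% = median of positive control wells; the first replicate is given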
HIV Env fusion: blocks HIV Env-driven cell-cell fusion. HeLa-JRFL Env/CEM21 cell fusion, luciferase. inhibition, % at 12.3 µM. hit rate 1.1% among 360,000. AID 651610;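 active means mean replicate inhibition score of at least 50 and every replicate individually at or above 50; inconclusive means only one of the two criteria met; inactive means mean below 50 and not all replicates reaching 50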;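 further: 0% = plate neutral controls and 100% = maraviroc near 300 nM; one replicate is shown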
Rce1 inh: blocks yeast Ras-converting enzyme | AID 2563 | yeast membranes, quenched prenylated peptide cleavage fluorescence | hit rate 0.27% among 290,000 | calls only;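 active means fall in fluorescence gain of 50% or more versus controls, with final raw signal at or below 3038400; inconclusive means same 50% fall but final raw signal above 3038400; inactive means fall in fluorescence gain under 50%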;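 further: plate controls were neutral control wells for no effect and wells lacking membranes for full effect; tested at 10 µM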
Target sequence (Q03530 whole entry, looked up): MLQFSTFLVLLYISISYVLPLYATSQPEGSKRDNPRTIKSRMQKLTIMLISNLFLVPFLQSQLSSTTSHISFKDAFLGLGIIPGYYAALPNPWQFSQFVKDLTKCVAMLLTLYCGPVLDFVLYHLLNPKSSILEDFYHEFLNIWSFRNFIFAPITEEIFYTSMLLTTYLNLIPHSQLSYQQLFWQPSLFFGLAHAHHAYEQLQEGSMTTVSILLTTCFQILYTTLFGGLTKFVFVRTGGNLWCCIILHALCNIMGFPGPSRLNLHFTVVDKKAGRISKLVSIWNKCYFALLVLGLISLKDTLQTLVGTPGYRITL
MT1-MMP act inh: inhibitors of human MT1-MMP activation; GFP/RFP ratio change, % at 20 µM; P50281; HT1080 RFP-PRO-GFP cells, GFP/RFP ratio fluorescence, overnight; percent of plate control window, DMSO zero; hit rate 0.061% among 360,000;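 active means GFP/RFP ratio change of at least 30% with cell ATP level not reduced by more than half and red fluorescence within 50% of control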; further: strong numbers were not always called active
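system = RFP-PRO-GFP reporter HT1080 cells | dosing = 20 µM single dose, 1% DMSO | timing = overnight cell settling, then overnight compound exposure, 37 °C, 5% CO2 | read-out basis = GFP/RFP fluorescence ratio | controls = DMSO and RFP-L50D-GFP cell wells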
UUG fidelity: alters start codon recognition fidelity in yeast. S. cerevisiae UUG-firefly luciferase reporter, luminescence/redox ratio. AID 602363. hit rate 0.13% among 350,000. activity score, % at 18.7 µM;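 active means replicate mean at a twofold rise or more, about +100% in these data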;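 further: firefly luciferase made from a UUG start codon reports start codon fidelity; reporter light over untreated wells divided by growth signal over untreated wells; some hits fall short of that in this replicate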
PABP polyA inh retest: recorded beside PABP polyA inh, whose call it bears; inhibition, %; compound at 20 µM; confirmation repeats;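 mean of two retest wells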
MT1-MMP act inh RFP: second read-out of MT1-MMP act inh, no call of its own (marks repeat the call); RFP signal change, %; measured here: RFP expression control read;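 0 = vehicle wells; hits needed this value within 50% of zero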
The depositor's hits bear a star; i = inactive; u = inconclusive; x = not tested or not shown. The list is partial, so the mix of outcomes need not match the whole.

SMILES	eIF4H FP inh	PABP polyA inh	CSC inhib	HIV Env fusion	Rce1 inh	MT1-MMP act inh	MT1-MMP act inh RFP	UUG fidelity	others
COc1ccc(C(=O)Nc2cccc(C(=O)Nc3cc(C)ccn3)c2)cc1	x	x	x	-9	x	-1	-2	-14
O=C(O)c1ccc2c(=O)n3c(nc2c1)/C(=C/c1ccc(Cl)c([N+](=O)[O-])c1)CC3	-9	10	-6	-11	i	5	2	-2
CC1(C)CC(=O)C(C=NCCN2CCN(C(=O)c3ccccc3)CC2)=C(O)C1	-1	-5	-4	-13	i	1	1	-12
Cc1cc(C(=O)N2CCN(c3ccccn3)CC2)no1	2	8	-6	-13	i	4	0	-4
Cc1cccc(N(CC(=O)NC2CCCCC2)C(=O)c2csnn2)c1	-5	2	-12	-18	i	-5	2	-8
Cc1cc(C(=O)OCCN2C(=O)c3ccccc3C2=O)c2ccccc2n1	10	3	11	x	i	-3	-2	-14
O=C(NCCc1c[nH]c2ccccc12)c1cnc2n(c1=O)CCS2	-9	2	5	8	i	0	4	2
O=c1[nH]c(CN2CCN(S(=O)(=O)c3ccc4c(c3)OCCO4)CC2)nc2sc3c(c12)CCCC3	-16	-10	-3	-3	i	-7	-7	-6
CCc1ccc(OCC(=O)Nc2cccc3c2CCCC3)cc1	u	51*	4	17	i	1	0	-11	PABP polyA inh retest=94*
CCn1c(SCC(=O)Nc2ccccc2)nnc1-c1ccc(S(=O)(=O)N2CCOCC2)cc1	-1	1	-8	-3	i	-2	-4	-14
Cn1nc(-c2ccccc2)cc1NC(=O)CCCC(=O)O	-14	2	-8	-8	i	2	6	x
CCOC(=O)N1CCN(S(=O)(=O)c2ccc(C(=O)N(CCN(CC)CC)c3nc4ccc(C)cc4s3)cc2)CC1	-3	2	-4	16	i	3	4	2
O=C(Nc1ccccc1Cl)Nc1ccnn1C1CCN(C(=O)C2CCOC2)CC1 (stereo not drawn)	x	x	x	4	x	3	11	-7
CCc1nccn1CCC(=O)N1CCCC(N2CCN(c3cccc(Cl)c3)CC2)C1 (stereo not drawn)	0	-4	25	-18	i	1	0	-17
O=S(=O)(c1ccc(N2CCN(c3ccc(F)cc3)CC2)cc1)N1CCCC1	-11	10	x	14	i	1	4	1
COc1cccc(C(=O)NCC2CCN(c3ccc(S(=O)(=O)N4CCOCC4)cc3)CC2)c1	0	2	22	19	i	-3	-11	-17
COc1ccc(CN2C(=O)c3ccccc3C2=O)cc1	-17	-11	5	-183	i	-1	1	-11
CCOc1ccc(C(=O)Nc2ccccc2N2CCCC2)cc1	10	3	-3	-80	i	x	x	-6
COc1ccc(-c2[nH]ncc2CN2CCC(C(=O)N3CCOCC3)CC2)c(F)c1	6	-1	-7	-7	i	4	5	-18
CC(OC(=O)C1=COCCO1)C(=O)c1ccc(C(C)(C)C)cc1 (stereo not drawn)	x	x	x	2	x	2	-5	-15
Nc1c(C(=O)NCc2ccco2)nnn1CC(=O)Nc1ccccc1	2	4	0	-8	i	7	3	-24
O=C(Nc1ccc(N2CCCC2)cc1)c1ccc2ccccc2c1	-5	-2	-4	-85	i	-1	-3	x
CCOC(=O)CN1C(=O)C(=O)c2cc(C)ccc21	-4	-4	-21	x	i	0	9	-17
O=C(NC1CCN(C(=S)NCc2ccco2)CC1)c1ccc(F)cc1	5	4	4	18	i	4	2	-21
CN(C)c1ccc(C2NC(=O)c3ccccc3N2)cc1 (stereo not drawn)	2	2	8	-37	i	5	-1	-27
Next compounds
SMILES	eIF4H FP inh	PABP polyA inh	CSC inhib	HIV Env fusion	Rce1 inh	MT1-MMP act inh	MT1-MMP act inh RFP	UUG fidelity	others
CCOC(=O)C1CCCN(C(=O)COc2ccc(N(C)S(=O)(=O)c3ccc(C)cc3)cc2)C1 (stereo not drawn)	-4	-11	-6	-44	i	0	-3	-18
O=C(CSc1nncs1)Nc1ccc(Cl)cc1C(F)(F)F	x	x	-5	x	i	1	3	3
O=C(NC1CCCC1)C(c1ccccc1)N(C(=O)c1ccco1)C1CCCC1 (stereo not drawn)	-8	-9	3	48	i	-2	-3	4
c1ccc(N2CCN(Cc3cn4cccnc4n3)CC2)cc1	-2	-3	0	-91	i	5	11	-9
Cc1ccc(C(=O)NNC2=NC(C)(C)Cc3ccccc32)cc1	-5	7	-8	-4	i	-1	0	-17
O=C(NCc1ccc2c(c1)OCO2)C1CCC(CNS(=O)(=O)c2ccc(Cl)cc2)CC1 (stereo not drawn)	5	-1	-10	x	i	3	0	x
CCOC(=O)c1ccc(NC(=O)COC(=O)c2cccc(Oc3ccccc3)c2)cc1	0	-6	-8	8	i	3	4	x
O=S(=O)(NC1CCCCCCC1)c1ccccc1	-6	-4	-2	18	i	0	-7	0
CC(=O)c1ccc(NC(=S)N2CCN(c3cccc(Cl)c3)CC2)cc1	-2	-1	-12	6	i	3	1	-18
OC(c1ccc(F)cc1)c1nc(-c2cccc(F)c2)cs1 (stereo not drawn)	x	x	x	-3	x	-1	-4	-5
CCOC(=O)/C(C#N)=C/c1c(N2CCN(c3ccc(OC)cc3)CC2)nc2c(C)cccn2c1=O	-2	-4	-14	27	i	-5	-6	2
O=C(CCn1c(=O)c2cccn2c2cccnc21)NCc1cccc(Cl)c1	4	-21	1	-5	i	-1	-3	-20
CCCCCC(=O)Nc1ccc(C(=O)CN2C(=O)NC3(CCCCCC3)C2=O)cc1	x	x	27	7	i	3	3	-19
CCOc1ccc(NS(=O)(=O)c2ccc3c(c2)CCN3C(=O)C2CCC2)cc1	13	4	-9	18	i	3	-5	x
COc1ccccc1NC(=O)CSc1nncn1N	-1	-12	-4	-17	i	0	5	-13
O=C(O)Cn1c(SCCOc2ccccc2F)nc2ccccc21	-2	5	-15	x	i	4	1	-25
COc1ccccc1Nc1nc2ccc(C)cc2n2cnnc12	0	-8	-16	6	i	4	4	x
CCOC(=O)c1ccc(NC(=O)CSC(=S)N2CCOCC2)cc1	0	-3	14	-5	i	3	1	x
Cc1ccc(S(=O)(=O)N2CCC(C(=O)NCCC3=CCCCC3)CC2)cc1C	x	x	18	-1	i	3	-3	-14
Cc1cc(C(=O)NC2CCCc3c2cnn3-c2ccccc2F)nc(C)n1 (stereo not drawn)	0	-1	13	-4	i	0	-4	18
COC(=O)CCC(=O)N1CCc2cc(S(=O)(=O)N3CCN(c4ccccc4Cl)CC3)ccc21	3	0	x	x	x	2	-4	-21
O=C(OCC(=O)N1CCCC1)c1cc([N+](=O)[O-])ccc1Cl	-5	5	-10	19	i	1	1	-6
Cc1cc(C(=O)N/N=C/C(Cl)=C/c2ccccc2)c(C)o1	-5	0	18	-17	i	6	-1	-12
COc1ccc2cc(C[C@@H]3CC[C@@H](CO)O3)ccc2c1	x	x	x	-19	x	8	3	-15
CC(C)CN1CCC(=O)N(CCC#N)CC1	-2	-11	2	-22	i	-4	4	-13
Other records.
SMILES	eIF4H FP inh	PABP polyA inh	CSC inhib	HIV Env fusion	Rce1 inh	MT1-MMP act inh	MT1-MMP act inh RFP	UUG fidelity	others
N#Cc1ccc(-c2nc3ccc(Br)cc3c(=O)n2O)cc1	-2	-4	21	3	i	1	-3	0
O=C(Cc1c(F)cccc1Cl)NNC(=O)c1ccncc1	x	x	-3	-1	x	-2	0	-11
CC(=O)c1ccc(NC(=S)NC(=O)/C=C/c2ccc(F)cc2)cc1	9	-4	0	x	i	1	2	-24
N#Cc1sc2nc(-c3cccs3)cc(-c3ccc(F)cc3)c2c1N	6	2	-9	10	i	-5	9	-13
CCOC(=O)COc1ccc2c(c1)c(C(C)=O)c(C)n2-c1ccc(OC)cc1	1	4	-14	6	i	-2	-1	2
O=C(c1cccc(F)c1)N1CCN(C(=O)c2cc3nc(-c4ccco4)cc(C(F)(F)F)n3n2)CC1	-2	4	-10	24	x	1	1	0
COC(=O)c1ccccc1C(=O)N(Cc1cccnc1)CC1CCCN(C2CCCCC2)C1 (stereo not drawn)	-9	-1	-6	-5	i	-3	0	-12
O=C(NCc1ccccc1Cl)C1CCCN1S(=O)(=O)c1ccccc1F (stereo not drawn)	1	-8	-1	-7	i	-2	-2	-11
COc1cnc(-c2ccccn2)nc1Sc1ccc(C)cc1	4	-3	-6	-6	i	-2	-7	x
CCn1c(SCC(=O)c2ccc(Br)cc2)nnc1C(C)NC(=O)Cc1ccc(OC)cc1 (stereo not drawn)	-9	2	x	6	i	0	-3	-8
O=C1C(Cl)=C(N2CCOCC2)C(=O)N1c1ccccc1F	2	1	-12	8	i	-1	-1	-13
Cc1ccc(C2=NS(=O)(=O)N(C)C(C(=O)N3CCOCC3)=C2)cc1	-8	-3	-10	-17	i	-2	0	15
O=C(N/C(=C/c1cccnc1)C(=O)N1CCOCC1)c1ccccc1Cl	-8	-6	-14	-2	i	1	6	x
CCN(CC)Cc1c(C(=O)N/N=C/c2cccs2)nnn1-c1nonc1N	3	0	-8	-8	i	3	5	-10
Cc1ccc(-c2nc(CS(=O)(=O)CC(=O)N3CCc4ccccc4C3)c(C)o2)cc1	-10	-3	-5	24	i	2	-8	-4
COc1ccc(OC)c(NS(=O)(=O)c2ccc3c(c2)C(C)(C)C(=O)N3C)c1	-4	-5	-14	x	i	-3	-2	-14
COc1ccc(OC)c(C2c3c(oc4ccccc4c3=O)C(=O)N2CCCN(C)C)c1 (stereo not drawn)	1	-4	-10	x	i	-4	1	0
